A1 apoptosis 2 = A1 inhibition read as caspase activation. MEF A1-2A-BIM cells, caspase-Glo luminescence, 3 h; percent of clofoctol response, DMSO zero. caspase activation, % (concentration not given with the values). 24,000 tested, under 10 active. AID 2465; in the data active = caspase activation above about 5.9%;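 also: wells of about 30 µL received 50 nL stock; the first replicate is given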
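Material: A1-2A-BIM-expressing MEF cells. Buffer or medium: RPMI-1640 plus 10% FBS. Incubation: cells settled overnight, compound exposure 3 h at 37 °C, 5% CO2. Signal: Caspase-Glo 3/7 luminescence, 1 h at room temperature.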
* marks the source's active call; other numbers are inactive results.

A first look:
cpd	SMILES	A1 apoptosis 2
1	C[C@H](CO)N1C[C@H](C)[C@H](CN(C)C)OCCCC[C@H](C)Oc2ccc(NS(=O)(=O)c3cccs3)cc2C1=O	0.0
2	C[C@@H]1CCCCO[C@@H](CN(C)S(C)(=O)=O)[C@H](C)CN([C@H](C)CO)C(=O)c2cc(NC(=O)Nc3cccc4ccccc34)ccc2O1	-1.0

The list itself (from the top)
cpd	SMILES	A1 apoptosis 2
1	C[C@H](CO)N1C[C@H](C)[C@H](CN(C)C)OCCCC[C@H](C)Oc2ccc(NS(=O)(=O)c3cccs3)cc2C1=O	0.0
2	C[C@@H]1CCCCO[C@@H](CN(C)S(C)(=O)=O)[C@H](C)CN([C@H](C)CO)C(=O)c2cc(NC(=O)Nc3cccc4ccccc34)ccc2O1	-1.0
3	Cc1noc(C)c1NC(=O)Nc1ccc2c(c1)CC(=O)N([C@@H](C)CO)C[C@@H](C)[C@@H](CN(C)S(=O)(=O)c1cn(C)cn1)O2	1.4
4	CC(C)NC(=O)N(C)C[C@@H]1OCCCC[C@@H](C)Oc2ccc(NC(=O)c3ccncc3)cc2C(=O)N([C@H](C)CO)C[C@H]1C	0.9
5	C[C@H]1CN([C@@H](C)CO)C(=O)Cc2cc(NC(=O)c3ccncc3)ccc2O[C@@H]1CN(C)Cc1ccc(C(=O)O)cc1	-0.3
6	C[C@@H]1CN([C@H](C)CO)C(=O)c2cc(NC(=O)C3CC3)ccc2O[C@H]1CN(C)C(=O)Nc1ccc(F)cc1	-0.5
7	C[C@H](CO)N1C[C@H](C)[C@H](CN(C)Cc2ccc(Cl)c(Cl)c2)Oc2c(NS(=O)(=O)c3ccc(Cl)cc3)cccc2C1=O	0.3
8	Cc1noc(C)c1S(=O)(=O)Nc1ccc2c(c1)C(=O)N([C@@H](C)CO)C[C@H](C)[C@@H](CN(C)S(=O)(=O)c1ccc(F)cc1)OCCCC[C@@H](C)O2	1.3
9	Cc1noc(C)c1S(=O)(=O)N(C)C[C@H]1Oc2ccc(NC(=O)Nc3cccc4ccccc34)cc2CC(=O)N([C@@H](C)CO)C[C@H]1C	1.0
10	C[C@@H]1CCCCO[C@@H](CN(C)Cc2ccc(C(=O)O)cc2)[C@@H](C)CN([C@H](C)CO)C(=O)c2cc(NC(=O)CCC(F)(F)F)ccc2O1	-0.2
11	C[C@@H]1CCCCO[C@H](CN(C)S(=O)(=O)c2ccc(F)cc2)[C@@H](C)CN([C@H](C)CO)C(=O)c2cc(NS(=O)(=O)c3ccccc3)ccc2O1	-0.5
12	C[C@H](CO)N1C[C@H](C)[C@@H](CN(C)S(=O)(=O)c2ccc(F)cc2)OCCCC[C@H](C)Oc2ccc(NS(=O)(=O)c3ccc(F)cc3)cc2C1=O	0.2

Next part:
cpd	SMILES	A1 apoptosis 2
13	Cc1noc(C)c1NC(=O)N(C)C[C@@H]1OCCCC[C@H](C)Oc2ccc(NC(=O)Cc3ccccc3)cc2C(=O)N([C@@H](C)CO)C[C@@H]1C	1.4
14	COc1ccc(NC(=O)N(C)C[C@H]2Oc3ccc(NC(=O)CCCN(C)C)cc3C(=O)N([C@H](C)CO)C[C@@H]2C)cc1	0.3
15	C[C@@H]1CN([C@H](C)CO)C(=O)c2cccc(NS(C)(=O)=O)c2O[C@@H]1CN(C)CC1CCCCC1	0.3
16	C[C@@H]1CCCCO[C@@H](CN(C)S(=O)(=O)c2cccs2)[C@@H](C)CN([C@H](C)CO)C(=O)c2cc(NS(=O)(=O)c3ccc(Cl)cc3)ccc2O1	-0.3
17	C[C@@H]1CCCCO[C@@H](CN(C)C(=O)Nc2ccc3c(c2)OCO3)[C@@H](C)CN([C@H](C)CO)C(=O)c2cc(NS(=O)(=O)c3ccccc3)ccc2O1	1.0
18	CCO[C@@H]1OC(C(=O)Nc2ccccc2)=C[C@H](c2cn(C(C)=O)c3ccccc23)[C@H]1CCCO	-0.7
19	C[C@H]1CN([C@@H](C)CO)C(=O)Cc2cc(N(C)C)ccc2O[C@@H]1CN(C)S(=O)(=O)c1ccccc1	0.6
20	C[C@@H]1CN([C@@H](C)CO)C(=O)c2cccc(NS(=O)(=O)c3cccs3)c2O[C@@H]1CN(C)Cc1ccc(C(F)(F)F)cc1	0.0
21	COc1ccccc1CN(C)C[C@@H]1OCc2cnnn2CCCC(=O)N([C@H](C)CO)C[C@H]1C	-0.3
22	C[C@H]1CN([C@@H](C)CO)C(=O)Cc2cc(NC(=O)c3ccncc3)ccc2O[C@@H]1CN(C)S(=O)(=O)c1ccccc1	0.2
23	COc1ccc(S(=O)(=O)Nc2ccc3c(c2)C(=O)N([C@H](C)CO)C[C@H](C)[C@H](CN(C)Cc2ccc(C(=O)O)cc2)OCCCC[C@H](C)O3)cc1	0.9
24	C[C@H]1CN([C@@H](C)CO)C(=O)Cc2cc(NC(=O)Nc3ccc(F)cc3)ccc2O[C@@H]1CN(C)C(=O)NC1CCCCC1	-1.1

New compounds follow.
cpd	SMILES	A1 apoptosis 2
25	C[C@@H]1CCCCO[C@@H](CN(C)S(C)(=O)=O)[C@H](C)CN([C@H](C)CO)C(=O)c2cc(NC(=O)Nc3ccc(F)cc3)ccc2O1	0.1
26	Cc1cc(C(=O)Nc2cccc3c2O[C@H](CN(C)Cc2ccccc2)[C@H](C)CN([C@H](C)CO)C3=O)n(C)n1	0.6
27	Cc1noc(C)c1S(=O)(=O)Nc1cccc2c1O[C@@H](CN(C)Cc1ccc(Oc3ccccc3)cc1)[C@@H](C)CN([C@H](C)CO)C2=O	-1.1
28	C[C@H]1CCCCO[C@H](CN(C)S(=O)(=O)c2ccccc2)[C@@H](C)CN([C@@H](C)CO)C(=O)c2cc(NC(=O)Nc3ccc4c(c3)OCO4)ccc2O1	0.7
29	C[C@H](CO)N1C[C@H](C)[C@H](CN(C)S(=O)(=O)c2cccs2)Oc2c(NC(=O)Nc3ccc(C(F)(F)F)cc3)cccc2C1=O	-0.5
30	Cc1noc(C)c1NC(=O)N(C)C[C@@H]1Oc2c(NC(=O)Nc3ccc(C(F)(F)F)cc3)cccc2C(=O)N([C@@H](C)CO)C[C@@H]1C	-0.5
31	NCCCCCCNC(=O)[C@@H]1C[C@@H]2C(=O)NCC(=O)N2[C@@H]1c1ccc(O)cc1	0.9
32	Cc1ccc(S(=O)(=O)N(C)C[C@H]2Oc3ccc(NC(=O)NC(C)C)cc3CC(=O)N([C@H](C)CO)C[C@H]2C)cc1	0.1
33	COc1ccc(CN(C)C[C@@H]2Oc3c(NC(=O)Nc4ccc5c(c4)OCO5)cccc3C(=O)N([C@H](C)CO)C[C@@H]2C)cc1	-0.4
34	C[C@@H]1CN([C@H](C)CO)C(=O)c2cc(NC(=O)Nc3ccc(F)cc3)ccc2O[C@@H](C)CCCCO[C@@H]1CN(C)C(=O)Cc1ccccc1	0.5
35	Cc1ccc(S(=O)(=O)N(C)C[C@@H]2OCCCC[C@H](C)Oc3ccc(NC(=O)Nc4ccc(C(F)(F)F)cc4)cc3C(=O)N([C@H](C)CO)C[C@H]2C)cc1	0.3
36	C[C@H]1CN([C@@H](C)CO)C(=O)Cc2cc(NC(=O)Nc3ccccc3)ccc2O[C@@H]1CN(C)Cc1ccncc1	0.2

Random excerpt: six entries already listed, in no set order.
cpd	SMILES	A1 apoptosis 2
27	Cc1noc(C)c1S(=O)(=O)Nc1cccc2c1O[C@@H](CN(C)Cc1ccc(Oc3ccccc3)cc1)[C@@H](C)CN([C@H](C)CO)C2=O	-1.1
32	Cc1ccc(S(=O)(=O)N(C)C[C@H]2Oc3ccc(NC(=O)NC(C)C)cc3CC(=O)N([C@H](C)CO)C[C@H]2C)cc1	0.1
35	Cc1ccc(S(=O)(=O)N(C)C[C@@H]2OCCCC[C@H](C)Oc3ccc(NC(=O)Nc4ccc(C(F)(F)F)cc4)cc3C(=O)N([C@H](C)CO)C[C@H]2C)cc1	0.3
29	C[C@H](CO)N1C[C@H](C)[C@H](CN(C)S(=O)(=O)c2cccs2)Oc2c(NC(=O)Nc3ccc(C(F)(F)F)cc3)cccc2C1=O	-0.5
30	Cc1noc(C)c1NC(=O)N(C)C[C@@H]1Oc2c(NC(=O)Nc3ccc(C(F)(F)F)cc3)cccc2C(=O)N([C@@H](C)CO)C[C@@H]1C	-0.5
28	C[C@H]1CCCCO[C@H](CN(C)S(=O)(=O)c2ccccc2)[C@@H](C)CN([C@@H](C)CO)C(=O)c2cc(NC(=O)Nc3ccc4c(c3)OCO4)ccc2O1	0.7

Additional compounds
cpd	SMILES	A1 apoptosis 2
37	COc1ccc(NC(=O)Nc2cccc3c2O[C@H](CN(C)C)[C@H](C)CN([C@H](C)CO)C3=O)cc1	-0.3
38	C[C@@H]1CN([C@H](C)CO)C(=O)CCCn2nncc2CO[C@@H]1CN(C)Cc1ccc2c(c1)OCCO2	0.8
39	C[C@H]1CN([C@@H](C)CO)C(=O)Cc2cc(NC(=O)CCN3CCOCC3)ccc2O[C@H]1CN(C)S(C)(=O)=O	1.4
40	COc1ccc(NC(=O)N(C)C[C@@H]2Oc3ccc(NC(=O)Nc4ccc5c(c4)OCO5)cc3CC(=O)N([C@@H](C)CO)C[C@H]2C)cc1	0.1
41	Cc1ccc(S(=O)(=O)Nc2cccc3c2O[C@@H](CN(C)S(=O)(=O)c2ccc(C)cc2)[C@@H](C)CN([C@H](C)CO)C3=O)cc1	0.2
42	C[C@H]1CN([C@@H](C)CO)C(=O)CCCn2cc(nn2)CO[C@H]1CN(C)Cc1cccc(O)c1	-1.5
43	Cc1ccc(S(=O)(=O)N(C)C[C@@H]2Oc3ccc(NS(=O)(=O)c4c(C)noc4C)cc3CC(=O)N([C@H](C)CO)C[C@H]2C)cc1	-0.1
44	C[C@@H]1CN([C@@H](C)CO)C(=O)CCCn2nncc2CO[C@@H]1CN(C)Cc1ccc(Oc2ccccc2)cc1	0.9
45	C[C@@H]1CN([C@@H](C)CO)C(=O)Cc2cc(NC(=O)Nc3ccc(C(F)(F)F)cc3)ccc2O[C@@H]1CN(C)C(=O)Nc1ccc(F)cc1	-0.9
46	COc1cc2c(cc1OC)CN(C(=O)[C@H]1[C@@H]3C(=O)O[C@@H](c4ccccc4)[C@@H](c4ccccc4)N3[C@@H](c3ccc(OCCO)cc3)[C@]13C(=O)Nc1ccc(C#CC4(O)CCCCCC4)cc13)CC2	0.8
47	C[C@@H]1CCCCO[C@@H](CN(C)Cc2ccncc2)[C@H](C)CN([C@H](C)CO)C(=O)c2cc(NC(=O)Nc3ccccc3)ccc2O1	-0.5
48	C[C@@H]1CN([C@H](C)CO)C(=O)CCCn2nncc2CO[C@@H]1CN(C)C(=O)Nc1cccc(C(F)(F)F)c1	-0.2

(cont.)
cpd	SMILES	A1 apoptosis 2
49	COc1ccc(S(=O)(=O)Nc2ccc3c(c2)CC(=O)N([C@@H](C)CO)C[C@@H](C)[C@H](CN(C)S(=O)(=O)c2cccs2)O3)cc1	1.3
50	C[C@@H]1CN([C@H](C)CO)C(=O)Cc2cc(NC(=O)Nc3ccccc3)ccc2O[C@@H]1CN(C)Cc1ccc(C(F)(F)F)cc1	-0.2
51	Cc1ccc(S(=O)(=O)N(C)C[C@H]2Oc3ccc(NC(=O)Nc4c(C)noc4C)cc3CC(=O)N([C@H](C)CO)C[C@H]2C)cc1	0.8
52	COc1ccc(NC(=O)N(C)C[C@@H]2Oc3c(NC(=O)C4CC4)cccc3C(=O)N([C@H](C)CO)C[C@H]2C)cc1	-0.2
53	C[C@H](CO)N1C[C@H](C)[C@@H](CN(C)Cc2cccnc2)OCc2cn(nn2)CCCC1=O	-0.6
54	COc1ccc(NC(=O)N(C)C[C@@H]2Oc3c(NC(=O)NC4CCCCC4)cccc3C(=O)N([C@@H](C)CO)C[C@@H]2C)cc1	0.1
55	C[C@H](CO)N1C[C@H](C)[C@@H](CN(C)C(=O)Nc2ccccc2)Oc2ccc(NC(=O)Cn3cnnn3)cc2C1=O	-0.5
56	C[C@@H]1CCCCO[C@@H](CN(C)S(C)(=O)=O)[C@H](C)CN([C@@H](C)CO)C(=O)c2cc(NS(=O)(=O)c3cn(C)cn3)ccc2O1	0.1
57	C[C@@H]1CN([C@@H](C)CO)C(=O)c2cccc(NC(=O)c3nc4ccccc4s3)c2O[C@H]1CN(C)S(=O)(=O)c1cn(C)cn1	-1.6
58	C[C@H](CO)N1C[C@H](C)[C@H](CN(C)Cc2ccc(C(=O)O)cc2)Oc2ccc(NC(=O)CCN3CCOCC3)cc2CC1=O	-0.1
59	CC(C)NC(=O)N(C)C[C@H]1Oc2ccc(NS(=O)(=O)c3cccs3)cc2CC(=O)N([C@@H](C)CO)C[C@@H]1C	0.0
60	C[C@H](CO)N1C[C@H](C)[C@H](CN(C)C(=O)Nc2cccc3ccccc23)Oc2ccc(NC(=O)NC3CCCCC3)cc2C1=O	0.5

(continued)
cpd	SMILES	A1 apoptosis 2
61	C[C@H]1CN([C@@H](C)CO)C(=O)c2cc(NC(=O)Nc3ccc4c(c3)OCO4)ccc2O[C@H]1CN(C)C(=O)Nc1ccc(C(F)(F)F)cc1	0.1
62	C[C@@H]1CN([C@H](C)CO)C(=O)c2cc(NS(=O)(=O)c3ccc(F)cc3)ccc2O[C@@H]1CN(C)S(=O)(=O)c1ccc(F)cc1	0.7
63	C[C@H](CO)N1C[C@H](C)[C@@H](CN(C)C(=O)Nc2ccc3c(c2)OCO3)Oc2ccc(NC(=O)Nc3cccc4ccccc34)cc2C1=O	0.7
64	O=C(CCCCCCC(=O)Nc1ccccc1O)N/N=C/c1cccnc1	0.7
65	C[C@H](CO)N1C[C@H](C)[C@@H](CN(C)S(=O)(=O)c2ccc(F)cc2)OCCCC[C@H](C)Oc2ccc(NC(=O)c3ccccc3)cc2C1=O	0.4
66	Cc1ccc(S(=O)(=O)N(C)C[C@H]2OCCCC[C@H](C)Oc3ccc(NC(=O)CCCN(C)C)cc3C(=O)N([C@H](C)CO)C[C@H]2C)cc1	-0.9
67	CC(C)NC(=O)N(C)C[C@@H]1Oc2ccc(NC(=O)Cc3cn(C)c4ccccc34)cc2C(=O)N([C@@H](C)CO)C[C@H]1C	-0.6
68	C[C@@H]1CCCCO[C@@H](CN(C)C(=O)Cc2ccccc2)[C@@H](C)CN([C@@H](C)CO)C(=O)c2cc(NS(=O)(=O)c3ccc(Cl)cc3)ccc2O1	-1.6

High-throughput results deposited in PubChem BioAssay by Broad Institute.

Not all compounds are listed; the hit share may differ from the screen's.
